# Sfp PPTase inh: qHTS Assay for Inhibitors of Bacillus subtilis Sfp phosphopantetheinyl transferase (PPTase); 4'-phosphopantetheinyl transferase ffp (Bacillus subtilis), Q9F4F7; Biochemical Sfp PPTase activity, qHTS; Potency, µM, without a hit: max response, negative = inhibition, hits mostly inhibitors; actives 3.5% (n = 310,000); AID 1490, 2009; active = well fitted inhibition curve with a large enough effect; inconclusive = small, poorly fitted or top-dose-only effect, or another doubt; inactive = no such curve, though single readings can be large or run the other way;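 also: the enzyme is Sfp with the accession as filed and its product quenches rhodamine fluorescence; potency is read from the fitted curve at half-maximal effect; 0% = enzyme reaction without inhibitor and -100% = no enzyme wells; top concentration of the series not given in the record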
#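 Compounds were incubated with enzyme (final 15 nM) for 15 min at room temperature before substrate addition started the reaction. Fluorescence at 525 nm excitation, 598 nm emission was recorded immediately and after 30 minutes.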
# gsp antag: qHTS for Antagonists of gsp, the Etiologic Mutation Responsible for Fibrous Dysplasia/McCune-Albright Syndrome: qHTS; gsp-mutant cells, cAMP HTRF, 30 min; control for the full effect not named in the record; AID 624288, 2012; Potency, µM (doses to about 76.9 µM), inactives show top-dose activity change, negative = inhibition, actives largely listed as inhibitors; actives 0.4% (n = 340,000); active = falling curve of any shape with a large fitted effect; inconclusive = falling curve, mostly with a smaller effect; inactive = flat or rising curve; cell line not stated here;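 also: intracellular cAMP measured with PDE inhibitor Ro 20-1724 present during compound exposure; potency is read from the fitted curve at half-maximal effect; % is scaled to controls: 0 for no effect and ±100 for the full control effect; nearly all actives have a fitted effect of over 65% in size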
#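 Cells in G418 medium, seeded 16-24 h, 37C; buffer exchange to DPBS + 1 mM CaCl2, 0.5 mM MgCl2, 0.05% BSA; cpds in DMSO + […] (300 uM stock), 30 min 37C; HTRF cAMP detection.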
# TRPV1 potentiator: HTS Assay for Compounds that Act as Potentiators of the Vanilloid Receptor 1. Transient receptor potential cation channel subfamily V member 1 (Homo sapiens), Q8NER1. TRPV1-expressing cells, Fluo-8 calcium influx, capsaicin EC20 potentiation; host cell line not named in the record; control for the full effect not named in the record. potentiation, % at 8.33 µM. actives 0.02% (n = 320,000). AID 540277, 2011; active means potentiation above 80%; inconclusive means 30% to 80%; inactive means below 30%; also: 0% is about no effect
# Target sequence (Q8NER1 whole entry, looked up): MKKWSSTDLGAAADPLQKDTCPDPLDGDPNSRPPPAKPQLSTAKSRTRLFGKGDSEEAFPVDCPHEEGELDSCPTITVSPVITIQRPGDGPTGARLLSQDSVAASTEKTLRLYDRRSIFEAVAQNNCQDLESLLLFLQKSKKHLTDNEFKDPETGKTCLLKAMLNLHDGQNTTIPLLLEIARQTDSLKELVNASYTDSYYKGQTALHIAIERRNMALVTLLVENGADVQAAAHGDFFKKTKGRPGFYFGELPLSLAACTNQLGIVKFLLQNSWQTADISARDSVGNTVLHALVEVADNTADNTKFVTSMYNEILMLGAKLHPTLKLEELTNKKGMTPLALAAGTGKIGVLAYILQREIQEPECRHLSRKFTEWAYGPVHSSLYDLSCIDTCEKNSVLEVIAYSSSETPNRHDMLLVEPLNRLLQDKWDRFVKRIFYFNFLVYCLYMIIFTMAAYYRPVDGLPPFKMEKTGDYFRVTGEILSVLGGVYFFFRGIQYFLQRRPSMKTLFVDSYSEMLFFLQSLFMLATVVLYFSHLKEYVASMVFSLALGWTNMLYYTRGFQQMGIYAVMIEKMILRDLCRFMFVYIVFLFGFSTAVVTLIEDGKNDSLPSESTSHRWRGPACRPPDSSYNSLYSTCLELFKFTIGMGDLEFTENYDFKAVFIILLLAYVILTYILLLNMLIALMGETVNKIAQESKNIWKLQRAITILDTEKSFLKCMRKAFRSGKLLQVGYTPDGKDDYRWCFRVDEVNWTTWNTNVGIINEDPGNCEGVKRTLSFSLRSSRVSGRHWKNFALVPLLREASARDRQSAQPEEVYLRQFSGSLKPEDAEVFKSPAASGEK
#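 Cells expressing TRPV1 were dye-loaded with Fluo-8 and read kinetically: 10 s baseline, 3 min after compound (agonist portion), then 2 min after EC20 capsaicin (allosteric enhancer portion). Calcium-bound dye fluorescence at 480/520 nm.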
# gsp ag: qHTS for Agonist of gsp, the Etiologic Mutation Responsible for Fibrous Dysplasia/McCune-Albright Syndrome: qHTS; actives 0.13% (n = 340,000); Potency, µM (titrated, usually from 76.9 µM), for the others: at the top dose activation (cAMP increase), hits mostly activators; gsp mutant cells, cAMP HTRF, 30 min; control for the full effect not named in the record; AID 624287, 2012; active = well fitted activation curve with a large enough effect; inconclusive = small, poorly fitted or top-dose-only effect, or another doubt; inactive = no such curve, though single readings can be large or run the other way; cell line not stated here;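 also: phosphodiesterase inhibitor Ro 20-1724 added with compounds to block cAMP breakdown; potency is read from the fitted curve at half-maximal effect; nearly all actives have a fitted effect of over 60% in size; about a fifth of the inactives were tested at one dose only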
#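 Cells in DMEM/10% FBS with G418 were pretreated with compounds in DMSO plus […] (300 uM stock) for 30 min at 37C. cAMP was measured by HTRF (cAMP-d2 plus anti-cAMP antibody-K) after 30 min at room temperature.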
# Menin MLL FP FL: qHTS Assay for Inhibitors Targeting the Menin-MLL Interaction in MLL Related Leukemias: Competition With Fluorescein Labeled MLL-derived Peptide | FP activity change, % at 61.4 µM | 290,000 tested, under 10 active | Fluorescence polarization, fluorescein-MLL peptide displacement from menin; inconclusive = falling polarisation curve, or a change in total fluorescence; inactive = total fluorescence flat and polarisation flat or rising; no compound was filed as active; the % refers to the polarisation; negative = inhibition;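 also: % of control where 0% means no effect; inhibitors lower the polarisation; unlabelled MLL peptide was the positive control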
# CtBP-E1A inh: qHTS Assay for Inhibitors of the CtBP/E1A Interaction | actives 0.49% (n = 340,000) | AlphaScreen GST-E1A/His-CtBP binding, 1536-well; stronger effect = lower value; control for the full effect not named in the record | activity change, % (no concentration beside the values); in the data active means activity change below about -65%; inconclusive means about -30% to -65%; inactive means above about -30%; also: % is scaled to controls: 0 for no effect and ±100 for the full control effect; compound concentration not given in the record
#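 GST-E1A and His-tagged CtBP (125 nM each as 5X stock) were preincubated with pin-transferred compound for 2 h at 37 °C in the dark, then glutathione donor and nickel acceptor beads were added for 1 h before AlphaScreen reading.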
# ClpP mod: qHTS Assay for Activators of ClpP | actives 1.9% (n = 340,000) | ATP-dependent Clp protease proteolytic subunit (Bacillus subtilis (strain 168)), P80244 | AID 651965, 2013 | Potency, µM (top dose mostly 57.5 µM), without a hit: at the highest dose activity change, negative = active | purified B. subtilis ClpP, FRET peptide cleavage, 20 min; active = well fitted falling curve with a large enough effect; inconclusive = small, poorly fitted or top-dose-only effect; inactive = no such curve, though single readings can be large or run the other way; also: potency is read from the fitted curve at half-maximal effect; the source files actives as falling curves though it sought activators and does not explain the sign; nearly all actives have a fitted effect of over 65% in size; many hits overshoot -100%
# Target sequence (P80244 whole entry, looked up): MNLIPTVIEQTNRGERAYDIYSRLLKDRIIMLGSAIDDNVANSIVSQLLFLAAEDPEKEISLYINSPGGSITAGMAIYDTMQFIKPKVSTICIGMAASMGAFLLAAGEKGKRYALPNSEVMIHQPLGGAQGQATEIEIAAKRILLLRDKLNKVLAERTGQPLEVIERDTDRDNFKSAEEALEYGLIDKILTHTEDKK
#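 Purified B. subtilis ClpP, 10 microg/mL final in Tris/HCl pH8 with KCl, BSA, glycerol and Tween-20, cleaved an Abz/nitrotyrosine-quenched decapeptide. Fluorescence (ex 320, em 430) was read at 0 and 20 min at room temperature. Delta was normalized to 5.8 microM ADEP and DMSO/no-enzyme controls.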
# * marks the source's active call; other numbers are inactive results; ? = inconclusive; . = not tested or not shown; [ ] = dose if it differs, or a comment.
# The line under a structure holds: Sfp PPTase inh, gsp antag, TRPV1 potentiator, gsp ag, Menin MLL FP FL, CtBP-E1A inh, ClpP mod
[1] Cc1c(N(C)S(=O)(=O)c2cc(C(=O)N3CCCC3)ccc2Cl)c(=O)n(-c2ccccc2)n1C
→ 5%, 12%, 5, 22%, ., 3, 0.7%
[2] O=C(NCC(c1cccnc1)N1CCN(c2ccc(F)cc2)CC1)c1cccc(Cl)c1 (configuration not stated)
→ 18%, -7%, 1, -51%[inhibitor], 0.1, -4, -0.9%
[3] CCCOc1ccc(N2C(=O)CC(NCc3cccs3)C2=O)cc1 (configuration not stated)
→ 9%, 1%, -1, ?, -4.0, 4, -1.0%
[4] O=Cc1c(SCCO)nc2ccccn2c1=O
→ 7%, 21%, -10, ?, -3.9, 2, 24%
[5] CC(=O)Nc1ccc(CN2CCCC(CO)(Cc3cccc(Cl)c3)C2)cc1 (configuration not stated)
→ 0%, 11%, 4, 8%, -1.2, ., -1.6%
[6] CCOC(=O)C1CCN(C(=O)CN(c2ccc(Cl)c(C(F)(F)F)c2)S(C)(=O)=O)CC1
→ 23%, -13%, -1, -7%, 1.4, 3, -3.4%
[7] N=C1S/C(=C\c2ccc(O)cc2)C(=O)N1c1ccc(F)cc1
→ -17%, -5%, -9, -29%, 30, -25, .
[8] CC(=O)c1cccc(NC(=O)N2CCCc3ccccc32)c1
→ 12%, 4%, -2, -16%, 3.1, 3, -4.0%
[9] CCCOc1ccc(C(=O)NCC(c2ccco2)N(C)C)cc1OC (configuration not stated)
→ -5%, 1%, 0, -9%, 0.5, 3, -3.2%
[10] COC(=O)c1ccccc1Oc1c(F)c(F)nc(N2CCOCC2)c1F
→ -14%, -2%, -11, -13%, 1.5, 13, -3.1%
[11] N#CC(c1ccc(Cl)nn1)c1c(F)cccc1Cl (configuration not stated)
→ -1%, 6%, 24, 0%, -13, -1, .
[12] c1ccc(Cc2nnc(Sc3ccccc3)c3ccccc23)cc1
→ -13%, -4%, ., ?, -0.5, 4, -1.6%
[13] CCC(=O)N1CCN(c2ccccc2NC(=O)c2cccc(C)c2)CC1
→ -4%, -15%, 9, 1%, 1.2, 4, 0.2%
[14] O=C(NCc1ccc(Cl)cc1Cl)Nc1ccccc1
→ ., -2%, ., -1%[15.4 µM], ., 18, -2.8%
[15] Cc1ccc(CNC(=O)C(=O)Nc2nccs2)cc1
→ 6%, 2%, 4, -3%, -2.7, ., -12%
[16] CCOC(=O)c1ccc(NC(=O)N2CCN(c3ccccn3)CC2)cc1
→ 6%, -12%, -12, -49%[inhibitor], -1.7, 1, 22µM*
[17] Cc1nc(CS(=O)c2ccccc2)cc(N2CCOCC2)n1 (configuration not stated)
→ 14%, -2%[15.4 µM], 18, -39%[inhibitor], -0.3, 1, -4.3%
[18] COC(=O)N/N=C/c1cn(CCOc2cccc(OC)c2)c2ccccc12
→ 2%, 2%, -19, 11%, 5.7, ., -0.9%
[19] S=C(Nc1ccc(Br)cc1)N1CCN(C2CCCCC2)CC1
→ 8%, 15%, -10, 1%, 0.3, 2, -0.8%
[20] O=C(CCc1nc(-c2ccccc2)no1)NCc1cccnc1
→ 8%, 10%, 6, 3%, -0.3, 4, -1.1%
[21] O=C(CC1SCCNC1=O)Nc1ccccc1Cl (configuration not stated)
→ 6%, 10%, -11, 7%[15.4 µM], -0.7, 1, .
[22] C[C@H](CO)N1C[C@H](C)[C@H](CN(C)C(=O)Cc2ccncc2)Oc2ncc(Br)cc2C1=O
→ ., ., ., 23%, ., 1, -2.1%
[23] C[C@@H]1CN([C@@H](C)CO)C(=O)CCCn2nncc2CO[C@H]1CN(C)Cc1ccccc1
→ ., ., ., 20%, ., 1, 1.8%
[24] CCN(CC(=O)Nc1ccc(Br)cc1F)CC(=O)NC1CCS(=O)(=O)C1 (configuration not stated)
→ ., 15%, -12, -32%[inhibitor], ., -2, 1.7%
[25] CC(=O)Nc1ccc(NC(=O)Cc2sc(-c3cccnc3)nc2-c2ccc(C)cc2)cc1
→ 10%, 8%, -2, -13%, 7.0, 1, -0.9%
[26] CCOC(=O)c1sc2ccc(S(=O)(=O)N3CCCCC3)cc2c1N
→ 0%, -16%, 13, -62%[inhibitor], 1.8, 5, -9.6%
[27] O=c1[nH]c(Cc2ccccn2)nc2scc(-c3ccc(Cl)cc3)c12
→ -26%, -6%, 15, 2%, 3.1, -4, .
[28] Cc1cccc(N(C(=O)c2sc(C)nc2C)C(C(=O)NCc2ccco2)c2ccccc2)c1 (configuration not stated)
→ 0%, -18%, 2, -4%, 1.9, -3, -0.3%
[29] CCOc1ccc(S(=O)(=O)NCc2cccnc2)cc1C(C)C
→ 6%, -17%, -23, -12%[15.4 µM], 0.7, 4, -0.2%
[30] CCOC(=O)C1CCN(C(=O)CCc2ccccc2)CC1
→ 14%, 11%, -10, -14%, 5.2, -1, 0.6%
[31] O=C1CSC(c2cccnc2)N1Cc1cccnc1 (configuration not stated)
→ -5%, -6%, 5, 20%, 2.3, ., -0.7%
[32] CCC(C(=O)NCCCN1CCCCCC1)n1nc(C)c2sc3ccccc3c2c1=O (configuration not stated)
→ 8%, 17%, -2, -5%, 4.7, 11, 0.6%
[33] CCCS(=O)(=O)N1CCC(C(=O)NCCc2ccc(OC)c(OC)c2)CC1
→ -2%, 8%, -16, -9%, -11, 2, 0.8%
[34] CCOc1ccc(C(=O)Nc2nnc(C(C)C)s2)cc1OCC
→ 89µM*, 4%, 15, -12%, 7.4, -1, -11%
[35] COc1ccc(C(=O)NC(=S)N2CCC(C)CC2)cc1
→ -4%, -3%, -6, 8%, 0.5, 1, -1.7%
[36] O=C(Nc1ccc(F)cc1F)c1noc2c1CCC2
→ 2%, 7%, -8, 15%, 0.2, 4, -0.2%
[37] CC1CCN(C(=O)COC(=O)c2cccc(S(=O)(=O)N(C)c3ccccc3)c2)CC1
→ ., -9%, -21, -62%[inhibitor], ., -6, -0.7%
[38] Fc1cnc(N2CCN(c3ccccc3)CC2)nc1N1CCN(c2ccccc2)CC1
→ ?, 4%, 7, 13%[15.4 µM], 5.8, -2, 32µM*
[39] CC(=O)C1=C(O)C(=O)N(c2ccc(O)cc2)C1c1ccc(Cl)cc1 (configuration not stated)
→ 12%, 7%, -3, 2%, 0.2, -4, -1.1%
[40] Cc1ccc(-c2cc(C(=O)NCc3cn(C)nc3C)c3cc(Br)ccc3n2)cc1
→ 7%, 7%, 1, ?, 4.7, 3, -5.1%

# Single records (already shown):
# CCC(C(=O)NCCCN1CCCCCC1)n1nc(C)c2sc3ccccc3c2c1=O (configuration not stated) is entered as Sfp PPTase inh = 8%; gsp antag = 17%; TRPV1 potentiator = -2; gsp ag = -5%; Menin MLL FP FL = 4.7; CtBP-E1A inh = 11; ClpP mod = 0.6%
# Cc1ccc(-c2cc(C(=O)NCc3cn(C)nc3C)c3cc(Br)ccc3n2)cc1 is entered as Sfp PPTase inh = 7%; gsp antag = 7%; TRPV1 potentiator = 1; gsp ag = ?; Menin MLL FP FL = 4.7; CtBP-E1A inh = 3; ClpP mod = -5.1%

# (further entries)
# The line under a structure holds: Sfp PPTase inh, gsp antag, TRPV1 potentiator, gsp ag, Menin MLL FP FL, CtBP-E1A inh, ClpP mod
[41] Cc1cc(N2CCC(C(=O)NC3CC3)CC2)nc(-c2ccccc2)n1
→ 2%, 6%, -20, -7%, 3.3, 12, -1.8%
[42] CCNc1nc(OC)nc(SCC(=O)Nc2ccccc2)n1
→ -7%, 8%, 24, 13%, 1.7, 5, 1.4%
[43] CCN(CC)CCNC(=S)Nc1ccc2nc(N3CCCC3)cc(C)c2c1
→ ?, 0%, -6, -25%, -3.4, -7, 4.4%
[44] CC(=O)c1cccc(NC(=O)CSc2ccc(-c3cccnc3)nn2)c1
→ ., -5%, ., -11%[15.4 µM], ., -1, 2.0%
[45] Cn1c(=O)c2[nH]c(-c3ccccc3)c(O)c2n(C)c1=O
→ 14µM*, ?, -3, 5%[15.4 µM], ?, -12, -13%
[46] CC(C)C(=O)Nc1cccc(-c2nc3ccccc3o2)c1
→ 14%, 4%, 17, -27%, 2.1, 3, ?
[47] CCCNC(=O)N1CCN(C(=O)NCCC)CC1
→ 10%, 5%, 5, ?, -1.1, 5, -1.6%
[48] CCc1[nH]nc(C(=O)N/N=C/c2ccncc2)c1C
→ 7%, 13%, 3, 18%, ., 5, 1.0%
[49] CCOc1ccc2nc(N3CCCC(C(=O)NCCCN4CCCCC4)C3)sc2c1 (configuration not stated)
→ 20%, -10%, 5, 4%, ., -8, 0.9%
[50] CCn1c(/C=N/NC(=O)c2ccc(OC)cc2)nc2ccccc21
→ -6%, -9%, -9, -12%, -1.1, -24, -21%

# In the list so far, four contain a thiophene ring, fused or not.
# The line under a structure holds: Sfp PPTase inh, gsp antag, TRPV1 potentiator, gsp ag, Menin MLL FP FL, CtBP-E1A inh, ClpP mod
[3] CCCOc1ccc(N2C(=O)CC(NCc3cccs3)C2=O)cc1 (configuration not stated)
→ 9%, 1%, -1, ?, -4.0, 4, -1.0%
[26] CCOC(=O)c1sc2ccc(S(=O)(=O)N3CCCCC3)cc2c1N
→ 0%, -16%, 13, -62%[inhibitor], 1.8, 5, -9.6%
[27] O=c1[nH]c(Cc2ccccn2)nc2scc(-c3ccc(Cl)cc3)c12
→ -26%, -6%, 15, 2%, 3.1, -4, .
[32] CCC(C(=O)NCCCN1CCCCCC1)n1nc(C)c2sc3ccccc3c2c1=O (configuration not stated)
→ 8%, 17%, -2, -5%, 4.7, 11, 0.6%

# Screens: PubChem, National Center for Advancing Translational Sciences (NCATS)
